High-throughput results: PubChem BioAssay, Johns Hopkins Ion Channel Center
KCNQ2 block – KCNQ2 potassium channel inhibitors, primary screen, cell-based, CHO-K1, FluxOR thallium flux, B-score (AID 2156). 20 min; hits give low values; only compounds with negative scores are shown here; some inactives read as strong as hits. B-score at 10 µM. 310,000 compounds, 1.1% hits;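 active means fluorescence ratio B-score at most minus 3 library SDs, with starting brightness B-score within 2 library SDs, cut at about -5.5 in these data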
Target sequence (O88943 whole entry, looked up): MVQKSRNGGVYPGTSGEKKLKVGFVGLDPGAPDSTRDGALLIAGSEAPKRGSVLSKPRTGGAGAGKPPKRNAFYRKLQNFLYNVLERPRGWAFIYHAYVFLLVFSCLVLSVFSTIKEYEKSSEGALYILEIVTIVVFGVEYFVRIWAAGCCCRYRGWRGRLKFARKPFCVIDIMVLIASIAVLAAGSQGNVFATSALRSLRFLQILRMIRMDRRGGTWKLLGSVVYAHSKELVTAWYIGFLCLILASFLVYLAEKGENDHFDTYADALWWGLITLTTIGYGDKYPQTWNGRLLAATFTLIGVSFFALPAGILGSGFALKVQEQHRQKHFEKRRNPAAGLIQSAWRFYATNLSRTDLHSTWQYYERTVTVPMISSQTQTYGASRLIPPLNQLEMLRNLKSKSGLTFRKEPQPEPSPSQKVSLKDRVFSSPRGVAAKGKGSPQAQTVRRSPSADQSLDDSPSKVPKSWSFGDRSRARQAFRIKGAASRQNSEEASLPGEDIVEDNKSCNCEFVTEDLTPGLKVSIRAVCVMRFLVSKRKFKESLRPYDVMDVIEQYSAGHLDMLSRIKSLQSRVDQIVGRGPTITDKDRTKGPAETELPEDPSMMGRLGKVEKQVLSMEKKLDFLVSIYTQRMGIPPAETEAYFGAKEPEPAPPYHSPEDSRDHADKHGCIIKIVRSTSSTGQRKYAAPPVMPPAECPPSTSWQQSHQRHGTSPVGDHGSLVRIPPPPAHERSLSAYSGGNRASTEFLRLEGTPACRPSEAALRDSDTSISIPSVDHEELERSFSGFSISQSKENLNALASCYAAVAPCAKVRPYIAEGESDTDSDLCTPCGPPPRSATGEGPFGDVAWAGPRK
KCNQ2 block baseline – further read-out of KCNQ2 block, marked with its call; B-score; measured here: initial fluorescence intensity artifact check;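 brightness before thallium and not channel activity; 0 = typical well and far values either way flag optical interference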
* hit, by the source's call; i = inactive.

Screens in order: KCNQ2 block baseline	KCNQ2 block
COc1ccccc1CNC(=O)C(=O)NCC1CCCN1S(=O)(=O)c1cccs1 (stereo not given)
→ 0.08	i
Cc1ccc(S(=O)(=O)N(C)CC(=O)OCC(=O)NC(c2ccccc2)c2ccccc2)cc1
→ 0.31	i
CN(C)S(=O)(=O)c1ccc2oc(SCC(=O)Nc3ccccc3F)nc2c1
→ 0.25	i
COc1ccc(CNC(=O)CN(c2ccc(OC)cc2)S(=O)(=O)c2c(C)[nH]c(=O)[nH]c2=O)cc1
→ 1.9	i
CN(Cc1cn(C)nc1-c1ccccc1F)CC1CCCCO1 (stereo not given)
→ 0.04	i
CCSc1nc(C)cc(C)c1S(=O)(=O)c1ccccc1C
→ 0.34	i
O=C(CCn1cnc2ccccc2c1=O)Nc1nc2c(s1)CCCC2
→ -2.7	i
COc1ccc(C(=O)CCC(=O)N2CCN(c3cc(C)ccc3C)CC2)cc1
→ 0.09	i
CN1CCN(C(=O)CC2(CC(=O)O)CCCC2)CC1
→ -2.6	i
CCOC(=O)c1cc(NC(=O)Nc2ccccc2OC)c(C)nc1C
→ -0.23	i

Six entries from above, bar-delimited.
mol | KCNQ2 block baseline | KCNQ2 block
CN(Cc1cn(C)nc1-c1ccccc1F)CC1CCCCO1 (stereo not given) | 0.04 | i
COc1ccc(C(=O)CCC(=O)N2CCN(c3cc(C)ccc3C)CC2)cc1 | 0.09 | i
CN(C)S(=O)(=O)c1ccc2oc(SCC(=O)Nc3ccccc3F)nc2c1 | 0.25 | i
CCSc1nc(C)cc(C)c1S(=O)(=O)c1ccccc1C | 0.34 | i
CCOC(=O)c1cc(NC(=O)Nc2ccccc2OC)c(C)nc1C | -0.23 | i
Cc1ccc(S(=O)(=O)N(C)CC(=O)OCC(=O)NC(c2ccccc2)c2ccccc2)cc1 | 0.31 | i

Additional compounds follow:
Screens in order: KCNQ2 block baseline	KCNQ2 block
CCOC(=O)N1CCC(N(CCOC)C(=O)Nc2ccc(Cl)cc2)CC1
→ -1.7	i
COc1ccc(C2C(C#N)=C(N)N(c3ccccc3C#N)C3=C2C(=O)CCC3)cc1CN1CCCC1 (stereo not given)
→ 1.6	i
Cc1ccc(S(=O)(=O)NC2CC(C)(C)NC(C)(C)C2)c(C)c1C
→ 1.1	i
O=C(NC(c1ccccc1)c1ccccc1)c1ccc(S(=O)(=O)C(F)F)cc1
→ 1.2	i
FC(F)(F)c1cnc(Sc2nc3nccc(-c4ccc(Cl)cc4)n3n2)c(Cl)c1
→ -0.6	i
O=C(NCCc1ccccc1)C(=O)NN=C1CCCC1
→ 1.6	i
CCc1nnc(NC(=O)CN2C(=O)/C(=C/c3cc(OC)c(OC)c(OC)c3)SC2=S)s1
→ -1.7	i
Cc1ccc(/C=N/NS(=O)(=O)c2ccc([N+](=O)[O-])cc2)o1
→ -1.1	i
COc1ccc(NC(=O)CSCC(=O)Nc2cccc3ncccc23)cc1
→ 1.7	i
CCOC(=O)N1CCN(CC(O)COc2cc(C)ccc2C(C)C)CC1 (stereo not given)
→ -0.86	i

Screens in order: KCNQ2 block baseline	KCNQ2 block
CCC1Nc2ncnc(N3CCN(c4ccccc4)CC3)c2N(Cc2ccc(Cl)cc2)C1=O (stereo not given)
→ -1.2	i
CN(C(=O)COC(=O)C1CCN(S(=O)(=O)c2ccc3c(c2)OCCO3)CC1)C1CCCCC1
→ -1.6	i
CCc1ccc(C(=O)NC(C(=O)O)C(C)C)cc1 (stereo not given)
→ -2.5	i
Nc1nc(NCC2CCCO2)nc(Nc2ccc(Cl)cc2)c1[N+](=O)[O-] (stereo not given)
→ 0.06	i
O=C(COc1ccccc1Cl)Nc1ccc(CN2CCCCC2)cc1
→ 0.34	i
Brc1ccc(Nc2nc(-c3cccnc3)cs2)cc1
→ 0.7	i
COc1cccc(NC(=O)Cn2nnc(C(=O)NCc3ccc4c(c3)OCO4)c2N)c1
→ -1.1	i
Cc1cc(C)nc(SCCS(=O)(=O)Cc2ccccc2)n1
→ -1.1	i
CC(C)(C)C(=O)Oc1cc(N)n(S(=O)(=O)c2ccc(F)cc2)n1
→ -2.8	i
CCOC(=O)Cn1nc(C)n(-c2ccccc2)c1=O
→ -0.04	i

Screens in order: KCNQ2 block baseline	KCNQ2 block
C=CCn1c(COc2ccc(Cl)cc2)nnc1SCC(=O)c1c(N)n(C)c(=O)n(C)c1=O
→ -0.01	i
O=C(COC(=O)c1ccccn1)Nc1cc(Cl)ccc1Cl
→ 0.77	i
CN(C)/C=C/C(=O)c1nnn(C2CCCCC2)c1NC1CCCCC1
→ -0.35	i
CCCCCCSC1=C(C#N)C(c2ccc(C)o2)CC(=O)N1 (stereo not given)
→ 1.9	i
CSc1ccccc1C(=O)NCC(c1ccco1)N(C)C (stereo not given)
→ -0.01	i
Cc1ccc(O)c(NC(=O)c2onc(C)c2Cl)c1
→ 0.59	i
N=c1n(CCN2CCCC2)c2ccccc2n1CC(O)c1ccc(Cl)c(Cl)c1 (stereo not given)
→ -0.29	i
Cc1ccc(S(=O)(=O)N(C)C)cc1NC(=O)COc1ccc(-c2nnco2)cc1
→ -0.03	i
COc1ccccc1N1CCN(C(=O)CSc2ncnc3c2cnn3-c2ccc(C)c(C)c2)CC1
→ 0.12	i
CCOC(=O)N1CCC(NC(=O)c2ccc(OC)c(CN3CC(=O)N4CCCC4C3=O)c2)CC1 (stereo not given)
→ -1.5	i

Screens in order: KCNQ2 block baseline	KCNQ2 block
CC(=O)c1cccc(N2Cc3ccccc3C2=NC(=O)CCl)c1
→ -2.4	i
O=C(CSc1nccc(=O)[nH]1)Nc1ccc(Oc2ccccc2)cc1
→ 0.07	i
CSCCC(NC(=O)c1cccc(C)c1)C(=O)OCC(=O)Nc1c(C)nn(-c2ccccc2)c1C (stereo not given)
→ -3.7	i
Cc1ccc(S(=O)(=O)c2ncccc2[N+](=O)[O-])cc1
→ -0.63	i
CCO/C(C)=C1\N=C(c2ccc(Cl)cc2)OC1=O
→ -0.63	i
O=C(Nc1ccccc1C(=O)Nc1ccc2c(c1)OCO2)c1ccco1
→ 0.44	i
COc1ccc(CN(C)C2CCCCC2)cc1
→ 0.52	i
CCC1=C(OC(=O)N(CC)CC)N2C(=O)OC(=NCCc3c[nH]c4ccccc34)[C@]2(C)[C@H]2C1=CC[C@H]1C(=O)N(C)C(=O)[C@H]12
→ -0.89	i
CCn1cc(CCC(=O)NCCc2ccccc2)c2ccccc21
→ 1.4	i
Cc1ccc2c(cnn2C(=O)CCC(=O)N2CCCCC2C)c1 (stereo not given)
→ 1.4	i

Screens in order: KCNQ2 block baseline	KCNQ2 block
CCOc1ccc(S(=O)(=O)n2nc(C)cc2C)cc1
→ 0.96	i
C(=C\c1ccncc1)/c1ccccc1
→ 0.25	i
O=C(CS(=O)(=O)c1ccc(F)cc1)Nc1nnc(-c2cccs2)o1
→ 0.71	i
CCc1ccc(NC(=O)CSc2nnc(Cc3cccn3C)n2-c2ccc(OC)cc2)cc1
→ 1	i
Cc1oc(-c2cccc(C(F)(F)F)c2)nc1CN1CCN(c2ccccn2)CC1
→ -3.7	i
COc1cccc(CN2C(=NC(=O)C3CC3)SC3CS(=O)(=O)CC32)c1 (stereo not given)
→ 0.48	i
Cc1cccc(NC(=O)c2ccc(NCC3CCCO3)c([N+](=O)[O-])c2)c1 (stereo not given)
→ 0.29	i
O=C(O)CCN1C(=O)/C(=C/c2ccc(-c3nc4ccccc4s3)o2)SC1=S
→ 0.73	i
Cc1nc(C)c(C(=O)Nc2ccc(C)c(F)c2)o1
→ 0.77	i
CCN(CC)c1ccc(/C=N\NC(N)=O)cc1
→ 0.61	i

Screens in order: KCNQ2 block baseline	KCNQ2 block
CC1CN(c2cc(-c3ccccc3)c3ccccc3n2)CC(C)O1 (stereo not given)
→ -0.12	i
CCCc1nc([N+](=O)[O-])c(S(=O)(=O)c2ccccc2)n1CC(C)C
→ -1	i
CC(=O)C1=C(C)N(Cc2ccccc2)C(=O)N[C@H]1CCc1ccccc1
→ 0.07	i
O=C(COc1ccc(Cl)cc1)Nc1ccccc1Cl
→ 2.1	i
CC(=O)Nc1cccc(C(=O)/C=C/c2ccco2)c1
→ 0.03	i
O=C(CC(C(=O)O)c1cccc(Br)c1)c1ccc(Cl)cc1 (stereo not given)
→ 0.05	i
C=CCN(C(=O)c1cc(C)cc(C)c1)C1(C(=O)Nc2ccccc2)CCN(C(C)C)CC1
→ -1.8	i
CCN(CC)CCNC(=O)/C(=N\O)c1ccccn1
→ -0.19	i
COc1cc(/C=C(\C#N)c2ccccn2)ccc1OCc1ccccc1
→ -1.5	i
CCc1ccccc1NC1=CC(=O)CC(C)(C)C1
→ -0.13	i

Screens in order: KCNQ2 block baseline	KCNQ2 block
CCCCSc1nc2c(c(C(F)(F)F)c1C#N)CCC2
→ -2.5	i
CCc1ccc(C(C(=O)NCc2ccccc2)N(C(=O)c2csnn2)C2CC2)cc1 (stereo not given)
→ 1.9	i
C=CCNC(=S)NNC(=O)c1cccc(Br)c1
→ 0.69	i
COc1ccc(C2=NN(C(=O)/C=C/c3ccccc3)C(c3ccccc3)C2)c(OC(C)=O)c1 (stereo not given)
→ -1.3	i
NS(=O)(=O)c1ccc(NC(=O)COC(=O)c2ccc(Cl)nc2)cc1
→ -0.55	i
Cc1ccc2cc(C#N)c(N3CCCN(C(=O)C4CCCO4)CC3)nc2c1C (stereo not given)
→ -1.3	i
CC(=O)N1[C@@H]2CC3C4CC=C5C[C@@H](O)CC[C@]5(C)C4CC[C@]3(C)[C@@]21C(C)=O (stereo not given in full)
→ 0.02	i
CCOC(=O)N1CCN(CC(=O)Nc2ccc(F)cc2F)CC1
→ -1.7	i
COC(=O)C1=C(C)NC(=O)NC1c1ccc(-c2ccccc2Cl)o1 (stereo not given)
→ -0.02	i
CNC(=O)CC1C(=O)N(c2ccc(F)cc2)C(=S)N1NC(=O)c1ccc(Cl)cc1 (stereo not given)
→ -2.1	i

Screens in order: KCNQ2 block baseline	KCNQ2 block
Cc1ccc(NC2CC(=O)N(CCc3ccccc3)C2=O)cc1 (stereo not given)
→ -2.1	i
O=C(Nc1cccc(S(=O)(=O)N2CCOCC2)c1)c1ccc2c(=O)n3c(nc2c1)CCCCC3
→ 3.2	i
COc1ccc(-c2cn3ccccc3n2)cc1[N+](=O)[O-]
→ -0.12	i
CC(CNC(=O)CCC(=O)N1CCOc2ccc(Cl)cc21)c1ccccc1 (stereo not given)
→ -0.11	i
COc1cc(-c2nc3n(c(=O)c2C#N)CCS3)cc(OC)c1OC
→ 0.39	i
CCO[C@H]1OC(C(=O)N2CCN(Cc3ccccc3)CC2)=C[C@@H](C2CCCCC2)[C@@H]1CCCO
→ -0.72	i
COc1ccc(-n2nc([N+](=O)[O-])c(=NCCc3ccccc3)n2O)cc1
→ 0.49	i
Cc1ccc(C=Nc2cc([N+](=O)[O-])ccc2C)s1
→ -1.1	i
COc1ccccc1N(CC(=O)NC1CCCCC1)S(C)(=O)=O
→ -0.19	i
CCn1c(Sc2nc(C)nc3scc(-c4cccs4)c23)n[nH]c1=O
→ -0.47	i

Screens in order: KCNQ2 block baseline	KCNQ2 block
O=C(NCC1CCCO1)c1c(O)c2cccc3c2n(c1=O)CC3 (stereo not given)
→ -1.3	i
CC1=Nc2cc(C(=O)N3CCCC3)ccc2Sc2ccc(C)cc21
→ 1.2	i
Cc1c(C(=O)NN)nn(-c2ccc(Cl)cc2)c(=O)c1C#N
→ -0.61	i
COC(=O)CCCC1=CC2=CC(=O)C(C)(OC(=O)c3cccs3)C(=O)C2=CN1CCN1CCOCC1 (stereo not given)
→ -0.44	i
CSc1cccc(NC(=O)C2(S(=O)(=O)c3ccc(C)cc3)CC2)c1
→ -0.32	i
CC(OC(=O)c1cccnc1SCc1cc(=O)n2ccccc2n1)c1ccccn1 (stereo not given)
→ 1.3	i
O=C(CSc1nc2c(c(=O)n1-c1ccc(F)cc1)SCC2)NCC1CCCO1 (stereo not given)
→ 0.74	i
COc1ccc2c(CSc3nnc(-c4cccnc4)n3-c3ccccc3F)cc(=O)oc2c1
→ 0.27	i
OC1(c2ccc(F)cc2)CN(c2ccccc2)C2=[N+]1CCS2 (stereo not given)
→ -0.29	i
O=C(NCCCn1ccnc1)c1ccc(-c2ccccc2)cc1
→ 4	i

Screens in order: KCNQ2 block baseline	KCNQ2 block
Cc1cc(N2CCCCC2)nc(SCc2ccc(C#N)cc2)n1
→ 0.4	i
CCN1CCN(C(c2ccc(OC)cc2)C(O)C(=O)c2c[nH]c3ccccc23)CC1 (stereo not given)
→ -1.3	i
Cc1cc(NC(=O)CSc2nnc(-c3ccc(S(=O)(=O)N4CCCC4)cc3)n2C)no1
→ 0.01	i
Cc1ccccc1S(=O)(=O)Cc1ccc(C(=O)NCc2ccco2)o1
→ 0.71	i
CC(Oc1ccccc1)C(=O)N1CCN=C1SCc1ccc(F)cc1 (stereo not given)
→ -0.09	i
Cc1ccc(Nc2nc3ccccc3c(=O)s2)cc1
→ -1.9	i
COc1ccc(NC(=O)Cn2nnc(-c3ccccc3N)n2)cc1OC
→ 2.2	i
CCc1ccc(NC2=NCC(=O)N2Cc2ccc3c(c2)OCO3)cc1
→ 0.29	i
CCOC(=O)c1cc(-c2ccccc2)nc2ccc(C)cc12
→ 0.2	i
Cc1ccc(C(=O)C2(C)C3c4cc(Br)ccc4OC(=O)C32C(=O)c2ccco2)cc1 (stereo not given)
→ -0.68	i

Screens in order: KCNQ2 block baseline	KCNQ2 block
N#Cc1ccc(-c2csc(NC(=O)c3cc(-c4cccs4)nc4ccccc34)n2)cc1
→ 0.41	i
O=C1NC2(CCCC2)C(=O)N1Cc1cc(=O)n2ccsc2n1
→ 0.17	i
CCc1ccc(NC(=S)NC2CC3CCCC(C2)N3Cc2cccs2)cc1 (stereo not given)
→ 2.1	i
Cn1cccc1Cc1nnc(SCC(=O)NCC2CCCO2)n1C (stereo not given)
→ -0.25	i
N#CCCN(CCN1CCCC1)S(=O)(=O)c1ccc(-c2ccc([N+](=O)[O-])cc2)cc1
→ 0.1	i
Fc1cnc(N2CCOCC2)nc1N1CCc2ccccc21
→ 2	i
COCCn1c(SCC(=O)Nc2ccccc2OC)nc2c([nH]c3ccccc32)c1=O
→ -0.86	i

This is a subset (hit frequency here may not be typical).
